# Source: PubChem (National Center for Advancing Translational Sciences (NCATS))
# DRD3 antagonist – D3 dopamine receptor (human) antagonism. 2.5% of 360,000 active. P35462. max response, negative = inhibition, %. AID 652054. D3R cells, DiscoveRx beta-arrestin luminescence, antagonist mode; active compounds read low; in the data active means max response below about -50%; inconclusive means no clear call, values can overlap the other calls; further: on the % scale 0 is the no-effect control and ±100 the full control effect; mostly tested at two doses, the higher about 12 µM
# Target sequence (P35462 whole entry, looked up): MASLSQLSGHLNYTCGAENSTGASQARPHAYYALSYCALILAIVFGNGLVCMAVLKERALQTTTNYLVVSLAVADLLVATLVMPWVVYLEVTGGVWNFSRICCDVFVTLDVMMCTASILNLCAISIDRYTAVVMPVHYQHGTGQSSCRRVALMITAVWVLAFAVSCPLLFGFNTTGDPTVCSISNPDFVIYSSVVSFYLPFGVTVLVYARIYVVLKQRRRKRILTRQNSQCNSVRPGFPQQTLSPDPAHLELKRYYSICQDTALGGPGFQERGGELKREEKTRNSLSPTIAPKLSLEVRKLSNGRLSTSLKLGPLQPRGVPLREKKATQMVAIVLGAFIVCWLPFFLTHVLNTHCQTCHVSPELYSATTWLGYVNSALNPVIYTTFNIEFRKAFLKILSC
#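 Cells expressing the human receptor were seeded at 1500 cells/well, incubated overnight at 37 degrees C in 5% CO2, then exposed to library compounds with dopamine controls for 90 minutes at 37 degrees C before luminescent detection.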
# GLP1R inv ag – acts as inverse agonist at human GLP-1 receptor; P43220; HEK293 GLP-1R CRE-luciferase, luminescence, 24 h; GLP-1R form is constitutively active; Potency, µM (highest dose often 38.3 µM), for inactives: top-dose activity change, negative = inhibition, usual class: inhibitors; 1.6% of 410,000 active; AID 624417; further: potency means the concentration at half of the fitted maximal effect; on the % scale 0 is the no-effect control and ±100 the full control effect; nearly all actives have a fitted effect of over 55% in size
#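 Luminescence readout: a drop in cAMP-driven luciferase signal flags inverse agonism at a constitutively active GLP-1R stably expressed in HEK293. Compound exposure lasted 24 hr at 37 deg C, 5% CO2.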
# DRD3 agonist – D3 dopamine receptor (human) agonism. max activation, %. P35462. D3R DiscoveRx beta-arrestin cells, luminescence, 90 min. 0.58% of 410,000 active; in the data active means max activation above about 30%; further: 0% is about no effect; mostly tested at two doses, the higher about 12 µM
#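 Agonist mode: compounds and dopamine controls were applied to plated cells for 90 min at 37 degrees C after an overnight attachment at 1500 cells/well. Luminescent read-out followed 30 - 60 minutes at room temperature with DiscoveRx detection reagent.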
# PI5P4Ka inh – inhibitors of human PI5P4K alpha; P48426; PI5P4Kalpha enzyme, ADP-Glo luminescence, 60 min; active compounds read low; max response, %; 1.2% of 330,000 active; active means max response of -50% or lower; inconclusive means between -30% and -50%; inactive means -30% or higher; further: value at the top dose of about 77 µM; on the % scale 0 is the no-effect control and ±100 the full control effect
#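 Quantitative HTS of the MLSMR library against PI5P4Kalpha with substrate. ATP added last at 5 microM final; room temperature, 60 minutes. Remaining ATP depleted, ADP converted and read as luminescence.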
# IL-2 act – activators of IL-2 | 0.065% of 360,000 active | activation, % (series mostly up to about 46 µM) | IL-2 activation reporter assay, cell-based qHTS; stimulated with anti-CD3/CD4/CD28 beads; in transgenic mouse T cells; in the data active means activation above about 50%; inconclusive means mostly about 30% to 49%; further: 0% is about no effect
#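 Unstimulated transgenic mouse T cells preincubated 60 min with compound, then stimulated with anti-CD3/anti-CD4-coated beads plus anti-CD28 for 18 h at 37 degrees C. IL-2 response read as EGFP and DsRed fluorescence by plate cytometry.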
# GLP-1R agonist – GLP-1 receptor (human) agonism; HEK293 GLP-1R CRE-luciferase, luminescence, 4-6 h; cells express a hypersensitive GLP-1R form; Potency, µM (doses to about 45.6 µM), without a hit: at the top dose activation, hits mostly activators; 0.007% of 380,000 active; AID 624172; further: potency means the concentration at half of the fitted maximal effect; % of control where 0% means no effect
# PLK1 PBD inh – inhibitors of human PLK1 polo-box domain binding; Plk1 PBD binding of FITC phosphopeptide, fluorescence polarization; Potency, µM, inactives show max response, negative = inhibition, most hits filed as inhibitors; 2.8% of 360,000 active; AID 720504; further: potency means the concentration at half of the fitted maximal effect; series mostly up to about 57 µM; on the % scale 0 is the no-effect control and ±100 the full control effect; nearly all actives have a fitted effect of over 65% in size
# Target sequence (P53350 whole entry, looked up, the tested form may be a part): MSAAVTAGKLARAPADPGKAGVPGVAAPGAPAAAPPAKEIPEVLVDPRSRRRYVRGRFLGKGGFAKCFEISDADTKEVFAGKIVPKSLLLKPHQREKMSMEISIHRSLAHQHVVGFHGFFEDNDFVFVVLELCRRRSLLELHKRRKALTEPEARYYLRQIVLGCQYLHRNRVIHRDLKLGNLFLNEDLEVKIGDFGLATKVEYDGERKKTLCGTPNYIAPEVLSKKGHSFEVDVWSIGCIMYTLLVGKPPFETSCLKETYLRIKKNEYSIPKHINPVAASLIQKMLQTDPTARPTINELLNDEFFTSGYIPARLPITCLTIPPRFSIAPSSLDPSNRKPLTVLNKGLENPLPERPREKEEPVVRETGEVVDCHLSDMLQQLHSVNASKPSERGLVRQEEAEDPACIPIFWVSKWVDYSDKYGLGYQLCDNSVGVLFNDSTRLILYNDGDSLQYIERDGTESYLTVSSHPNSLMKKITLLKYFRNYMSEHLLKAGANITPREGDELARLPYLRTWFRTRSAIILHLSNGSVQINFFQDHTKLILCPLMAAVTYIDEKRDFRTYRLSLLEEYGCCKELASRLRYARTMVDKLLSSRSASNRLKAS
# GLP1R cytotox – cytotoxicity in counter-screen for GLP-1R inverse agonists | Potency, µM (highest dose often 38.3 µM), for inactives: at the highest dose activity change, negative = inhibition, actives largely listed as inhibitors | AID 624418 | HEK293 cAMP-luciferase reporter cells, luminescence, 24 h | 0.13% of 410,000 active;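 further: loss of luciferase light is scored as toxicity; potency means the concentration at half of the fitted maximal effect; on the % scale 0 is the no-effect control and ±100 the full control effect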
#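 Compound-treated cells are incubated 24 hr at 37 deg C under 5% CO2 after a 12 hour attachment period, then luciferase detection reagent is added and luminescence is measured following 12 min at room temperature; lowered signal indicates toxicity.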
# * marks the source's active call; other numbers are inactive results; ? = inconclusive; · = not tested or not shown; [ ] = another dose, or the depositor's remark. Unless noted, the call rests on the fitted dose curve; in most records, active means well fitted curve in the direction sought with a large enough effect; inconclusive means small, poorly fitted or top-dose-only effect, or another doubt; inactive means no such curve, though single readings can be large; an effect the other way counts as inactive or inconclusive.
SMILES,DRD3 antagonist,GLP1R inv ag,DRD3 agonist,PI5P4Ka inh,IL-2 act,GLP-1R agonist,PLK1 PBD inh,GLP1R cytotox
COc1ccccc1C1C(C#N)=C(N)Oc2cc(C)n(CCCn3ccnc3)c(=O)c21 (centres undefined),-4,1%,3,-1,-3.0,-5%,-9%,5%
CCOC(=O)c1sc(NC(=O)CSc2n[nH]c(-c3ccncc3)n2)c(C#N)c1C,0,6%,3,10,0.8,-1%,-4%,-6%
Oc1ccccc1-c1nc(NCC2CCCO2)c2ccccc2n1 (centres undefined),-26,?,-1,16,-3.7,-6%,-4%,1%
O=C(NCc1ccc(Cl)cc1)c1noc2c1CCCCC2,-29,?,-21,·,-1.9,7%,-9%,-11%
O=C(CNC(=O)c1ccccc1)NCc1nc2ccccc2[nH]1,-13,14%,-16,2,-0.1,1%,-3%,16%
O=C1CC(C(=O)Nc2ccccc2)S/C(=N\N=C\c2ccco2)N1 (centres undefined),10,44%[activator],24,3,-1.8,1%,-3%,21%
Cc1cnc(C(=O)OCC(=O)N2CCN(S(=O)(=O)c3ccc(Cl)cc3)CC2)cn1,10,7%,-4,-4,0.1,1%,0%,7%
COc1ccc(/C=C2\CCc3c2nc2ccccc2c3C(=O)O)cc1OC,-17,?,-9,-6,0.2,-4%,-29%,·
CCOC(=O)N1CCN(C(=O)CCSCCc2ccncc2)CC1,29,12%,3,-8,0.4,13%,-6%,13%
COc1cc(C(=O)NCc2cccc3ccccc23)ccc1OCc1ccccc1,-19,0%,-2,·,-0.4,-1%,2%,2%
CC(C)(C)OC(=O)[C@H](Cc1ccccc1)NC(=O)c1nc[nH]c1C(=O)NC1CCNCC1,-6,-22%,-15,11,0.1,-3%,-7%,-5%
CC(=O)NS(=O)(=O)c1cccnc1Nc1cccc(Cl)c1,27,-4%,7,5,0.5,-12%,-3%,-4%
O=C1CC(c2cccc(Br)c2)C2=C(CCCC2=O)N1 (centres undefined),-12,0%,-13,-12,-3.7,-6%,-9%,22%
O=C(CCN1CCCCC1)c1cccc(Cl)c1,-10,19%,-17,-5,-0.4,1%,?,-17%
COc1ccc(NC(=O)CSc2nc(NS(=O)(=O)c3ccccc3)cc(=O)[nH]2)cc1,-10,0%,-7,·,-1.2,-1%,-14%,7%
Cc1sc(NC(=S)NC(=O)c2ccc(C(C)(C)C)cc2)c(C#N)c1C,-15,-5%,24,·,7.0,-7%,?,3%
COc1cc(/C=C2\CCCc3c2nc2ccccc2c3C(=O)O)cc([N+](=O)[O-])c1O,-100*,2%,-30,-64*,1.6,-1%,-14%,?
CN(Cc1ccccc1)C(=O)c1ccc(Nc2nc(C(N)COCc3ccccc3)cs2)nc1 (centres undefined),0,?,4,10,0.1,4%,2%,-18%
CCOc1ccc(CN2CCNC(=O)C2CC(=O)NCCC2=CCCCC2)cc1 (centres undefined),-14,-1%,-7,-1,-0.2,9%,-10%,-11%
CN(CC(=O)Nc1ccccc1Cl)C1CCS(=O)(=O)C1 (centres undefined),-1,18%,-1,0,0.1,-3%,1%,34%[activator]
COc1ccc2c3n([n+]([O-])c2c1)CCN=C3c1cc(Cl)c(N)c(Cl)c1,-18,6%,-2,-7,-0.4,4%,-10%,-11%
Cn1c(CC(=O)NNC(=O)c2ccc(F)cc2Cl)nc2ccccc21,-2,0%,1,5,2.2,-7%,-4%,-5%
c1cc(-c2nnc(-c3ccncc3)o2)ccn1,-7,14%,-3,-6,-0.6,-4%,-7%,0%
CN(Cc1ccccc1)C(=O)c1ccc(Nc2nc(C(N)Cc3ccccc3)cs2)nc1 (centres undefined),-3,?,0,3,-0.7,-3%,0%,-11%
Cc1cc(C)c(S(=O)(=O)Nc2cccnc2)c(C)c1,2,14%,3,·,-2.1,-1%,-1%,10%
Cc1cc(-c2csc(NC(=O)c3ccc(C#N)cc3)n2)c(C)n1Cc1ccco1,4,14%,7,-62*,-1.3,4%,-7%,9%
COc1ccccc1CN(C)C(=O)C1(c2ccc(Cl)cc2)CC1,-6,?,0,-1,-0.2,-2%,6%,-1%[1.53 µM]
CCC(CC)C(=O)OCC(=O)NC12CC3CC(CC(C3)C1)C2,16,0%,10,·,-2.0,-3%,-2%,8%
CC(=O)c1ccc(NC(=O)c2ccc(N3C(=O)c4cccnc4C3=O)cc2)cc1,5,8%,2,-5,-1.7,-3%,-5%,0%
CC(C(=O)N1CCOCC1)N1C(=O)c2ccccc2C1=O (centres undefined),0,14%,-16,-4,0.9,1%,-5%,-2%
CCCS(=O)(=O)NC(=O)C1(C)CCCN(C(=O)c2ccncc2)C1 (centres undefined),6,7%,5,3,-0.6,-3%,5%,1%
O=C(N[C@@H](Cc1ccccc1)C(=O)OCc1ccccc1)c1nc[nH]c1C(=O)NC1CCNCC1,?,-10%,-36,1,-0.5,-4%,-2%,6%
CCOc1ccc(C(=O)C(CN2CCOCC2)c2ccccc2)cc1 (centres undefined),-7,?,-8,-2,-0.8,-38%,0%,?
CSCC[C@@H](C(=O)O)N1Cc2ccccc2C1=O,-7,4%,-4,-2,1.1,-7%,10%,15%
O=C(CSc1ccc(Cl)cc1)NC(=O)NCc1ccco1,3,-11%,6,-27,-4.9,1%,3µM*,-1%
Cc1cc(N2CCOCC2)n2nc(-c3cccc(F)c3)cc2n1,10,6%,-21,·,0.0,-1%,-6%,1%
COc1ccc(OC)c(-n2c(-c3cccc(O)c3)n[nH]c2=S)c1,-29,5%,1,·,-1.7,4%,27µM*,4%
COc1ccc(OC)c(/C=C/C(=O)OCC(=O)N2CCN(S(=O)(=O)c3ccc(C)cc3C)CC2)c1,-21,19%,-9,8,-4.2,-1%,0%,-2%
O=C(NCCc1ccccc1)c1nnc(CS(=O)(=O)c2ccccc2)o1,-21,-9%,-4,-4,-3.4,-3%,-14%,-8%
Cc1ccc2nc3c(nc2c1)-c1ccccc1C3=O,-3,0%,-7,·,-2.3,-8%,-9%,2%
CC(C)(C)c1ccc(S(=O)(=O)N2CCC(CO)(CC3CCCCO3)CC2)cc1 (centres undefined),14,?,9,12,-6.7,8%,-8%,-2%
Cc1c(NC(=O)N(C)c2ccccc2)c(=O)n(-c2ccccc2)n1C,-6,1%,5,-5,1.4,-3%,-14%,5%
c1ccc(CNc2nc3ccccc3[nH]2)cc1,-6,-10%,4,·,-3.0,-2%,2%,?
CC1(C(=O)NS(=O)(=O)C2CC2)CCN(C(=O)c2ccc(F)cc2Cl)C1 (centres undefined),9,1%,2,4,-0.2,-1%,1%,5%
CCOC(=O)CN1C(=O)C(O)(c2c(C)[nH]c3ccccc23)c2ccccc21 (centres undefined),-21,0%,1,-7,0.3,-7%,-2%,-6%
CC(O)c1nc2ccccc2n1CCCc1ccccc1 (centres undefined),-4,?,2,-5,3.2,6%,-7%,12%
COc1cccc(OC)c1C(=O)Nc1c(C)n(C)n(-c2ccccc2)c1=O,17,6%,7,·,-2.4,-5%,-3%,-19%
COc1cc(OC)cc(C(=O)NNC(=O)CCC(=O)c2cc(C)sc2C)c1,12,-3%,1,-4,-2.9,-5%,3%,-16%
CN(C(=O)CNc1ccccc1Cl)C1CCS(=O)(=O)C1 (centres undefined),-2,18%,-6,-2,2.2,3%,-4%,-4%
O=C(O)Cn1c(O)c(C2=c3ccccc3=NC2=O)sc1=O,?,1%,1,-27,-1.9,0%,-23%,0%
C[C@H](NC(=O)c1nc[nH]c1C(=O)N1CCN(c2ccccc2)CC1)C(=O)OC(C)(C)C,-13,6%,0,7,-0.3,0%,-9%,1%
O=C(CCS(=O)(=O)c1ccccc1)OCC(=O)N1CCN(S(=O)(=O)c2ccc(Cl)cc2)CC1,2,10%,1,2,0.7,-1%,-4%,-5%
CCN(CC)S(=O)(=O)c1cc(C(=O)n2cccn2)c(Cl)cc1Cl,-5,14%,5,·,-2.1,0%,0%,5%
Cc1ccc(-c2nnnn2-c2ccc(C)cc2)cc1,2,4%,9,?,-0.8,18%,17µM*,16%
O=C(CCSc1ccc(Cl)cc1)c1ccco1,6,?,2,11,-0.5,2%,?,-24%
CN(Cc1nc2ccc(F)cc2[nH]1)Cc1c(C(=O)N(C)C)nc2ccc(Cl)cn12,-2,1%,11,0,-0.5,15%,-4%,-14%
CCCCN(C)C(=O)c1ccc(Nc2nc(C(N)COCc3ccccc3)cs2)nc1 (centres undefined),39,-18%,-1,1,-0.8,0%,12%,-1%
O=C(CSCc1ccc(Br)cc1)N1CCCC1,11,7%,-12,-1,0.4,0%,-1%,-2%
O=S(=O)(CCc1nnc(-c2ccc(Br)cc2)o1)c1ccc(Cl)cc1,5,2%,2,0,0.1,0%,-2%,5%
O=C(NC(=S)Nc1ccccc1N1CCN(C(=O)c2ccccc2)CC1)c1ccccc1F,-20,?,-4,0,-0.5,-2%,-5%,-24%
# The list goes on.
SMILES,DRD3 antagonist,GLP1R inv ag,DRD3 agonist,PI5P4Ka inh,IL-2 act,GLP-1R agonist,PLK1 PBD inh,GLP1R cytotox
CCOC(=O)c1sc(NC(=O)CSc2nc3c(cc2C#N)CCCCC3)c(C#N)c1C,21,?,1,8,-0.4,-9%,-8%,27%
CC(=O)Nc1cc(-c2ccc(C(=O)NC3CC3)cc2)cn2c(-c3cccc(C(C)=O)c3)cnc12,82,?,-4,2,0.0,-1%,-20%,-5%
CC12CNCC(C)(CN(C3(O)C(=O)Nc4ccc(Br)cc43)C1)C2=O (centres undefined),-4,0%,-3,-2,1.1,16%,-6%,-5%
CCCCOc1ccc(C(=O)OCC(=O)N2CCOCC2)cc1,-19,-29%,-15,1,-3.2,6%,-11%,-1%
CC(C)(C)OC(=O)[C@H](Cc1ccccc1)NC(=O)c1nc[nH]c1C(=O)N1CCNCC1,15,3%,0,-1,-1.1,1%,-28%,1%
COC(=O)c1cc(NC(=O)CN(C)C2CCS(=O)(=O)C2)cc(C(=O)OC)c1 (centres undefined),-12,-1%,-2,1,2.3,7%,-9%,18%
c1ccc(-c2nc(NCC3CCCO3)c3ccccc3n2)nc1 (centres undefined),-53*,0%,0,0,-2.7,6%,-6%,?

# Fetched by structure from the entries so far (3):
SMILES,DRD3 antagonist,GLP1R inv ag,DRD3 agonist,PI5P4Ka inh,IL-2 act,GLP-1R agonist,PLK1 PBD inh,GLP1R cytotox
CC(C)(C)OC(=O)[C@H](Cc1ccccc1)NC(=O)c1nc[nH]c1C(=O)N1CCNCC1,15,3%,0,-1,-1.1,1%,-28%,1%
CCCCOc1ccc(C(=O)OCC(=O)N2CCOCC2)cc1,-19,-29%,-15,1,-3.2,6%,-11%,-1%
c1ccc(-c2nc(NCC3CCCO3)c3ccccc3n2)nc1 (centres undefined),-53*,0%,0,0,-2.7,6%,-6%,?

# These rows are one share of the data, so the mix of outcomes need not match the whole.
